# UUG fidelity: alters start codon recognition fidelity in yeast. S. cerevisiae UUG-firefly luciferase reporter, luminescence/redox ratio. activity score, % at 18.7 µM. hit rate 0.13% among 350,000. AID 602363;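 active = replicate mean at a twofold rise or more, about +100% in these data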;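 also: firefly luciferase made from a UUG start codon reports start codon fidelity; reporter light over untreated wells divided by growth signal over untreated wells; some hits fall short of that in this replicate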
# Starred values were filed as active, the others as inactive.
UUG fidelity | SMILES
-11.3 | CN1c2ccc(-c3ccccc3)cc2[C@@H]2[C@@H](CCN2C(=O)c2ccc3c(c2)OCO3)[C@@H]1CO
-6.5 | C[C@H]1CN([C@@H](C)CO)C(=O)c2cccc(NS(=O)(=O)c3cccs3)c2O[C@H]1CN(C)C
-3.1 | CN(C)CC(=O)N1CCCCN2[C@@H](CO)[C@H](c3ccc(/C=C/c4ccccc4)cc3)[C@@H]2C1
1.4 | O=C(CC1CC1)Nc1ccc2c(c1)[C@@H]1C[C@@H](CC(=O)N3CCc4ccccc4C3)O[C@H](CO)[C@@H]1O2
-6.1 | CN1c2ccc(-c3ccccc3F)cc2[C@@H]2[C@@H](CCN2C(=O)c2ccccn2)[C@H]1CO
5.9 | Cc1ccccc1-c1ccc([C@H]2[C@H](CO)N3CCCCN(S(C)(=O)=O)C[C@@H]23)cc1
6.3 | Cc1ccccc1-c1cnc2c(c1)C(=O)N([C@@H](C)CO)C[C@H](C)[C@H](CN(C)CC1CCCCC1)O2
-18.4 | COc1ccc(NC(=O)N2CC[C@@H]3[C@@H](CO)N(C)c4ccc(-c5cccc(F)c5)cc4[C@@H]32)cc1
12.1 | COc1cccc(S(=O)(=O)N2CCCCN3[C@H](CO)[C@H](c4ccc(C#CC(C)C)cc4)[C@@H]3C2)c1
-4.0 | O=C(CN1CCOCC1)N1CC[C@@H]2[C@H]1c1cc(-c3ccc(F)cc3)ccc1N[C@@H]2CO
26.2 | Cc1ccc(S(=O)(=O)N2C[C@H](O)COC[C@H]3O[C@H](CC(=O)NCC4CCCCC4)CC[C@@H]32)cc1
-2.6 | COc1ccc(NC(=O)N(C)C[C@H]2Oc3c(NC(=O)c4cnccn4)cccc3C(=O)N([C@@H](C)CO)C[C@@H]2C)cc1

# The final 2 records of the section before come first, to join the parts:
UUG fidelity | SMILES
26.2 | Cc1ccc(S(=O)(=O)N2C[C@H](O)COC[C@H]3O[C@H](CC(=O)NCC4CCCCC4)CC[C@@H]32)cc1
-2.6 | COc1ccc(NC(=O)N(C)C[C@H]2Oc3c(NC(=O)c4cnccn4)cccc3C(=O)N([C@@H](C)CO)C[C@@H]2C)cc1
12.5 | C[C@H]1CN([C@@H](C)CO)C(=O)Cc2cc(NC(=O)c3ccncc3)ccc2O[C@@H]1CN(C)S(=O)(=O)c1ccccc1
-18.2 | CCNC(=O)[C@H]1[C@H](CO)[C@H]2Cn3c(ccc(-c4ccccc4)c3=O)[C@@H]1N2Cc1cccnc1
-1.4 | C[C@@H]1CN([C@H](C)CO)C(=O)CCCn2cc(nn2)CO[C@@H]1CN(C)Cc1ccccc1C(=O)O
6.7 | O=S(=O)(c1ccccc1)N1CCCCN2[C@H](C1)[C@H](c1ccc(-c3ccccc3)cc1)[C@@H]2CO
2.2 | C[C@H](CO)N1C[C@H](C)[C@@H](CN(C)Cc2ccc(Oc3ccccc3)cc2)Oc2c(NS(=O)(=O)c3ccc(Cl)cc3)cccc2C1=O
-7.9 | COc1ccc(S(=O)(=O)N2CCCCN3[C@H](CO)[C@H](c4ccc(-c5cccnc5)cc4)[C@H]3C2)cc1
3.9 | CN1C(=O)c2cc(NC(=O)Cc3ccccc3)ccc2OC[C@@H]2O[C@@H](CC(=O)NC3CCC3)CC[C@@H]21
-6.0 | O=C(C[C@@H]1CC[C@@H]2[C@H](COC[C@H](O)CN2C(=O)Nc2ccc(Cl)cc2)O1)N1CCCCC1
-9.6 | CCC(=O)Nc1ccc2c(c1)OC[C@H](C)N(Cc1ccccn1)C[C@H](C)[C@@H](OC)CN(C)C2=O
4.1 | CC(=O)N1CCCCN2[C@@H](CO)[C@H](c3ccc(-c4ccc(C)cc4)cc3)[C@@H]2C1
10.7 | C[C@@H]1CN([C@H](C)CO)C(=O)CCCn2nncc2CO[C@@H]1CN(C)C(=O)Nc1ccc(-c2cccs2)cc1
-1.4 | COc1ccc(NC(=O)N(C)C[C@H]2Oc3ccc(NC(=O)CCCN(C)C)cc3C(=O)N([C@H](C)CO)C[C@@H]2C)cc1

# More entries.
UUG fidelity | SMILES
37.6 | O=C(C[C@H]1CC[C@H]2[C@@H](COC[C@H](O)CN2S(=O)(=O)c2ccc(F)cc2)O1)N[C@@H]1CCN(Cc2ccccc2)C1
27.1 | C[C@H]1CN([C@@H](C)CO)C(=O)Cc2cc(NS(=O)(=O)c3ccc(F)cc3)ccc2O[C@@H]1CN(C)CC1CCCCC1
20.4 | O=C(C[C@H]1CC[C@@H]2[C@H](COC[C@H](O)CN2C(=O)c2ccccc2F)O1)N1CCN(c2ccccc2)CC1
-1.8 | COCC(=O)Nc1ccc2c(c1)C(=O)N(C)C[C@@H](OC)[C@H](C)CN(C(=O)Cc1ccccn1)[C@@H](C)CO2
9.2 | CO[C@@H]1CN(C)C(=O)c2ccc(NS(=O)(=O)c3ccccc3)cc2OC[C@@H](C)N(Cc2ccccn2)C[C@H]1C
-18.1 | Cn1cnc(CCNC(=O)C[C@@H]2CC[C@@H]3[C@H](COC[C@@H](O)CN3C(=O)Nc3ccc(F)cc3)O2)c1
-10.7 | CS(=O)(=O)Nc1ccc2c(c1)[C@H]1C[C@H](CC(=O)N3CCCCC3)O[C@@H](CO)[C@H]1O2
-4.5 | COCC(=O)Nc1ccc2c(c1)C(=O)N(C)[C@H]1CC[C@H](CC(=O)NC3Cc4ccccc4C3)O[C@H]1CO2
22.0 | COCCN(C[C@H]1[C@H](c2ccccc2)[C@@H](CO)N1C(C)=O)C(=O)c1cccnc1
-4.5 | C[C@@H]1CN([C@H](C)CO)C(=O)CCCn2nncc2CO[C@@H]1CN(C)C(=O)Nc1cccc(C(F)(F)F)c1
-16.8 | Cc1noc(C)c1S(=O)(=O)Nc1ccc2c(c1)C(=O)N([C@@H](C)CO)C[C@@H](C)[C@@H](CN(C)Cc1ccc3c(c1)OCO3)O2
-17.3 | C/C=C/c1ccc([C@@H]2[C@@H](CO)N(Cc3ccccn3)[C@H]2CNC(=O)CC)cc1

# Next part
UUG fidelity | SMILES
3.0 | O=C(C[C@H]1CC[C@@H]2[C@H](COC[C@H](O)CN2Cc2ccc(F)cc2)O1)NCc1ccccc1Cl
-12.1 | C[C@H](NC(=O)C[C@H]1CC[C@@H]2[C@H](COc3ccc(NC(=O)C4CCOCC4)cc3C(=O)N2C)O1)c1ccccc1
-12.6 | C[C@H](CO)N1C[C@H](C)[C@H](CN(C)S(=O)(=O)c2cccs2)Oc2c(NC(=O)Nc3ccc(C(F)(F)F)cc3)cccc2C1=O
0.0 | C/C=C/c1ccc([C@@H]2[C@@H](CO)N(c3nc(CC)cs3)[C@@H]2CNC(C)C)cc1
16.5 | O=C(c1ccc2c(c1)OCO2)N1CC[C@@H]2[C@@H](CO)Nc3ccc(-c4ccccc4)cc3[C@@H]21
3.9 | Cc1noc(C)c1NC(=O)Nc1ccc2c(c1)C(=O)N([C@H](C)CO)C[C@H](C)[C@H](CN(C)S(C)(=O)=O)O2
6.4 | CCCNC(=O)N1[C@H](CNC(=O)CC)[C@@H](c2ccc(C3=CCCC3)cc2)[C@@H]1CO
-9.1 | O=C(CN1CCOCC1)N1CCCCN2[C@H](CO)[C@H](c3ccc(Br)cc3)[C@H]2C1
57.3 | CO[C@H]1CN(C)C(=O)c2ccc(NC(=O)c3cccc(F)c3)cc2OC[C@H](C)N(C)C[C@H]1C
9.1 | Cc1noc(C)c1NC(=O)N(C)C[C@@H]1Oc2c(NC(=O)Nc3ccc(C(F)(F)F)cc3)cccc2C(=O)N([C@@H](C)CO)C[C@@H]1C
12.0 | Cc1ccc(S(=O)(=O)N(C)C[C@H]2Oc3ccc(NC(=O)NC(C)C)cc3CC(=O)N([C@H](C)CO)C[C@H]2C)cc1
-5.5 | O=C(c1ccc2c(c1)OCO2)N1C[C@@H]2[C@H](c3ccccc31)[C@H](CO)N2Cc1ccccc1Cl

# (next part)
UUG fidelity | SMILES
35.5 | C[C@H](CO)N1C[C@H](C)[C@H](CN(C)Cc2ccc(C(=O)Nc3ccccc3N)cc2)Oc2ccc(NS(=O)(=O)c3cccs3)cc2C1=O
-3.2 | OC[C@H]1[C@@H](c2ccc(C#Cc3ccccc3)cc2)[C@H]2CN(CC3CCOCC3)CCCCN21
-19.0 | COc1ccc(NC(=O)Nc2cccc3c2O[C@H](CN(C)C)[C@H](C)CN([C@H](C)CO)C3=O)cc1
1.1 | CC=Cc1ccc2n(c1=O)C[C@@H]1[C@@H](CO)[C@H](C(=O)NCCC)N(CC3CCOCC3)[C@H]21 (mixture of isomers)
-2.8 | Cc1ccc(-c2ccc([C@@H]3[C@@H](CO)N4CCCCN(C)C[C@H]34)cc2)cc1
7.9 | Cc1noc(C)c1NC(=O)N(C)C[C@H]1Oc2c(NC(=O)Nc3ccc4c(c3)OCO4)cccc2C(=O)N([C@H](C)CO)C[C@H]1C
-10.1 | C[C@@H]1CN([C@@H](C)CO)C(=O)CCCn2cc(nn2)CO[C@H]1CN(C)Cc1cccc(C(=O)O)c1
-9.5 | COc1cccc(-c2ccc([C@@H]3[C@@H](CO)N4CCCCN(Cc5cncnc5)C[C@H]34)cc2)c1
-2.2 | Cc1ccc(S(=O)(=O)N2C[C@@H](O)COC[C@H]3O[C@H](CC(=O)N[C@H]4CCN(Cc5ccccc5)C4)CC[C@@H]32)cc1
8.5 | C/C=C/c1ccc([C@H]2[C@@H](CO)N3CCCCN(C(=O)Nc4ccccc4F)C[C@H]23)cc1
-5.2 | C[C@@H]1CN([C@@H](C)CO)C(=O)c2cccc(NC(=O)c3ccc(-c4nccs4)cc3)c2O[C@@H]1CN(C)Cc1ccc(Oc2ccccc2)cc1
-7.3 | C[C@H]1CN([C@@H](C)CO)C(=O)c2ccccc2-c2ccccc2CO[C@@H]1CN(C)S(=O)(=O)c1ccc(C#N)cc1

# Molecules above that contain two or more sulfur atoms, in the order listed:
UUG fidelity | SMILES
-6.5 | C[C@H]1CN([C@@H](C)CO)C(=O)c2cccc(NS(=O)(=O)c3cccs3)c2O[C@H]1CN(C)C
-12.6 | C[C@H](CO)N1C[C@H](C)[C@H](CN(C)S(=O)(=O)c2cccs2)Oc2c(NC(=O)Nc3ccc(C(F)(F)F)cc3)cccc2C1=O
35.5 | C[C@H](CO)N1C[C@H](C)[C@H](CN(C)Cc2ccc(C(=O)Nc3ccccc3N)cc2)Oc2ccc(NS(=O)(=O)c3cccs3)cc2C1=O

# Carrying on:
UUG fidelity | SMILES
0.8 | COCC(=O)Nc1ccc2c(c1)C(=O)N(C)[C@H]1CC[C@H](CC(=O)NCC3CCCCC3)O[C@H]1CO2
-1.0 | CO[C@@H]1CN(C)C(=O)c2ccc(NC(=O)Nc3cc(F)ccc3F)cc2OC[C@H](C)N(C(=O)c2ccccn2)C[C@@H]1C
11.6 | CCCNC(=O)Nc1ccc2c(c1)OC[C@@H](C)N(C(=O)C1CCCCC1)C[C@@H](C)[C@@H](OC)CN(C)C2=O
8.5 | C[C@@H]1CN([C@H](C)CO)C(=O)c2cc(NS(=O)(=O)c3cccs3)ccc2O[C@@H]1CN(C)Cc1ccc(-c2ccccc2)cc1
-13.7 | CCC(=O)N1C[C@H](C)[C@H](OC)CN(C)C(=O)c2cc(NC(=O)C3CCOCC3)ccc2OC[C@@H]1C
-14.7 | Cc1nn(C)cc1NC(=O)C[C@@H]1CC[C@@H]2[C@H](COc3ccc(NC(=O)Nc4cccc(Cl)c4)cc3C(=O)N2C)O1
11.0 | C[C@@H]1CN([C@@H](C)CO)C(=O)c2cccc(NC(=O)c3ccc(-c4nccs4)cc3)c2O[C@@H]1CN(C)Cc1ccncc1
-6.7 | O=C(NC[C@H]1[C@@H](c2ccccc2)[C@H](CO)N1C(=O)C1CC1)NC1CCCC1
-18.0 | N#Cc1cccc(-c2ccc3c(c2)[C@@H]2[C@@H](CCN2C(=O)c2ccccc2F)[C@@H](CO)N3)c1
5.2 | CN(C)CC#Cc1ccc([C@@H]2[C@H]3CN(C(=O)C4CCCC4)CCCCN3[C@H]2CO)cc1
-3.1 | CC(C)[C@H](C)NC(=O)N(C)C[C@@H]1OCc2ccccc2-c2c(n(C)c3ccccc23)C(=O)N([C@@H](C)CO)C[C@H]1C
5.0 | CN1CCN(C(=O)C[C@@H]2CC[C@H]3[C@@H](COC[C@H](O)CN3C(=O)Nc3ccc(Cl)cc3)O2)CC1

# An excerpt of these results, field by field:
Compound: O=C(CC1CC1)Nc1ccc2c(c1)[C@@H]1C[C@@H](CC(=O)N3CCc4ccccc4C3)O[C@H](CO)[C@@H]1O2
  UUG fidelity: 1.4

Compound: CN1c2ccc(-c3ccccc3F)cc2[C@@H]2[C@@H](CCN2C(=O)c2ccccn2)[C@H]1CO
  UUG fidelity: -6.1

# Continued:
UUG fidelity | SMILES
7.0 | C[C@@H]1CN([C@@H](C)CO)C(=O)Cc2cc(NC(=O)Nc3ccc(F)cc3)ccc2O[C@H]1CN(C)C
-15.0 | C/C=C/c1ccc([C@H]2[C@H](CO)N[C@H]2CN(C(=O)C2CCCC2)C(C)C)cc1
4.7 | C[C@@H]1CN([C@H](C)CO)C(=O)c2cccc(N(C)C)c2O[C@H]1CN(C)C(=O)Nc1ccc(F)cc1
-6.3 | CO[C@H]1CN(C)C(=O)c2cc(NS(=O)(=O)c3cn(C)cn3)ccc2OC[C@H](C)N(Cc2cccc(F)c2)C[C@@H]1C
11.7 | C/C=C/c1ccc([C@H]2[C@@H](CNC(C)=O)N(C(=O)Cc3cccnc3)[C@H]2CO)cc1
8.2 | C[C@H]1CN([C@@H](C)CO)C(=O)CCCn2nncc2CO[C@H]1CN(C)C(=O)Nc1ccc(C(F)(F)F)cc1
-6.1 | O=C(Nc1ccc(Cl)cc1)N1C[C@@H]2[C@H](c3ccccc31)[C@H](CO)N2C(=O)c1ccccn1
-19.2 | Cc1ccc(S(=O)(=O)N2CC[C@@H]3[C@H]2c2cc(C#Cc4cccnc4)ccc2N(C)[C@H]3CO)cc1
-4.5 | CNC[C@@H]1Oc2ccc(NC(=O)Cn3cnnn3)cc2CC(=O)N([C@H](C)CO)C[C@H]1C
-0.3 | O=C(NC1CCC1)[C@H]1[C@H](CO)[C@H]2Cn3c(ccc(-c4ccccc4)c3=O)[C@@H]1N2CC1CC1
-19.5 | C[C@@H]1CN([C@@H](C)CO)C(=O)c2cc(NC(=O)CCC(F)(F)F)ccc2O[C@@H]1CN(C)Cc1ccc(C(=O)Nc2ccccc2N)cc1
-6.1 | Cc1cc(C(=O)Nc2cccc3c2O[C@@H](CN(C)C(=O)Nc2ccc(F)cc2)[C@@H](C)CN([C@@H](C)CO)C3=O)n(C)n1
-5.5 | CCN(C[C@@H]1N[C@H](CO)[C@H]1c1ccccc1)C(=O)c1ccncc1

# Screening results from PubChem.

# This is a subset; the hit share may differ from the screen's.
